Bioassay records (PubChem BioAssay)
Menin-MLL FL inh: displaces fluorescein MLL peptide from human menin; Fluorescence polarization, fluorescein-MLL peptide displacement from menin; FP activity change, % at 61.4 µM; 290,000 tested, under 10 active; inconclusive = falling polarisation curve, or a change in total fluorescence; inactive = total fluorescence flat and polarisation flat or rising; no compound was filed as active; the % refers to the polarisation; negative = inhibition;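 also: % of control where 0% means no effect; inhibitors lower the polarisation; unlabelled MLL peptide was the positive control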
TRPML1 ag: agonists of human TRPML1 channel; Q9GZU1; TRPML1-expressing cells, Ca2+ dye fluorescence, FDSS; host cell line not named in the record; reference of the full effect not given here; activation, % (no concentration beside the values); 410,000 compounds, 0.12% hits; in the data active = activation above about 50%; inconclusive = about 30% to 50%; inactive = below about 30%; also: 0% is about no effect; the text of the record puts the active cut at 80%
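Agonist activity was taken from a 110 s kinetic Ca2+ dye read on the FDSS after pinning compounds onto TRPML1-DL cells. The cells were seeded at 1,500/well with Tet inducer, incubated about 16 h, then dye-loaded at room temperature.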
TRPV1 PAM: enhances activation of the human vanilloid receptor TRPV1 | Q8NER1 | TRPV1-expressing cells, Fluo-8 calcium influx, capsaicin EC20 potentiation; host cell line not named in the record; control for the full effect not named in the record | potentiation, % at 8.33 µM | 320,000 compounds, 0.02% hits | AID 540277; active means potentiation above 80%; inconclusive means 30% to 80%; inactive means below 30%; also: 0% is about no effect
Target sequence (Q8NER1 whole entry, looked up): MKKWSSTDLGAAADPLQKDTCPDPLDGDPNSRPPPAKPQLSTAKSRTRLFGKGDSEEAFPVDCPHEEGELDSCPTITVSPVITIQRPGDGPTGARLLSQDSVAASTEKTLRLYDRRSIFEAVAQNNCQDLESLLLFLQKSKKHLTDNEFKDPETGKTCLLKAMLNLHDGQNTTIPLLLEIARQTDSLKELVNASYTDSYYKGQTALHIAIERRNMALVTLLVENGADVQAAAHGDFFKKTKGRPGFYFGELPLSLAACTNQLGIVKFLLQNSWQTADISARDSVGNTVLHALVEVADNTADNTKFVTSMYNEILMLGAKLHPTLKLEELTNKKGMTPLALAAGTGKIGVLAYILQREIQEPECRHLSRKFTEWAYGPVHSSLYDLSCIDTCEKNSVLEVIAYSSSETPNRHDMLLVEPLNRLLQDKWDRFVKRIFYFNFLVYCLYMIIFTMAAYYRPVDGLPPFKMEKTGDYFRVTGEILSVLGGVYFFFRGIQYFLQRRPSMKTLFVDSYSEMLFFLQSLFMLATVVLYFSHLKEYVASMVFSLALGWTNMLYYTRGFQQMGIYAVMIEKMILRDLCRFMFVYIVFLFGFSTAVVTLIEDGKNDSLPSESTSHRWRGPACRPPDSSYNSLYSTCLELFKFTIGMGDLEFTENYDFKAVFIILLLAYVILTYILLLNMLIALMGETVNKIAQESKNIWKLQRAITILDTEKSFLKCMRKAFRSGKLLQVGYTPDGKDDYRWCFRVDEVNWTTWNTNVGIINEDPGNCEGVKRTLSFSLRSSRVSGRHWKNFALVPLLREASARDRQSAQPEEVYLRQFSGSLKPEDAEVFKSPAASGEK
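Fluo-8 calcium influx in TRPV1-expressing cells, kinetic read (ex 480/em 520 nm). Compound added and read 3 min for agonist activity, followed by capsaicin at EC20 final and 2 min further read for enhancement.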
PINK1 modulator: changes PINK1 expression | PINK1 immunofluorescence, high-content cytometry, 24 h | Potency, µM (titrated, usually from 76.6 µM), without a hit: at the top dose activation (PINK1 increase), actives largely listed as activators | 410,000 compounds, 0.2% hits; active = well fitted activation curve with a large enough effect; inconclusive = small, poorly fitted or top-dose-only effect; inactive = flat fitted curve, though single readings scatter; cell line not stated here;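 also: potency is read from the fitted curve at half-maximal effect; % of control where 0% means no effect; nearly all actives have a fitted effect of over 65% in size; a mitochondrial uncoupler was the plate control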
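Measures PINK1 amount and localization on or inside mitochondria by immunofluorescence. Stable cells get compounds at 5 concentrations for 24 hours before fixation and staining; CCCP controls included.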
TRPML1 blocker: blocks the human TRPML1 channel | Q9GZU1 | TRPML1-inducible cells, Ca2+ dye fluorescence, FDSS; stronger effect = lower value; inhibition of EC80 agonist-evoked calcium signal | activity change, negative = inhibition, % (concentration not given with the values) | 390,000 compounds, 0.02% hits; in the data active means activity change below about -50%; inconclusive means about -30% to -50%; inactive means above about -30%;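 also: stimulus is agonist 54-4 at its EC80 concentration; % is scaled to controls: 0 for no effect and ±100 for the full control effect; the text of the record puts the active cut at -80%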
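Tet-induced TRPML1-DL cells loaded with Ca8 no-wash calcium dye were read kinetically on FDSS. Compound addition was followed by EC80 agonist 54-4 (4 uM final); inhibition was read over 110 s.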
Sfp PPTase inh: inhibitors of Bacillus subtilis Sfp phosphopantetheinyl transferase. 310,000 compounds, 3.5% hits. Q9F4F7. Potency, µM, for the others: max response, negative = inhibition, actives largely listed as inhibitors. Biochemical Sfp PPTase activity, qHTS; active = well fitted inhibition curve with a large enough effect; inconclusive = small, poorly fitted or top-dose-only effect, or another doubt; inactive = no such curve, though single readings can be large or run the other way;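 also: the enzyme is Sfp with the accession as filed and its product quenches rhodamine fluorescence; potency is read from the fitted curve at half-maximal effect; 0% = enzyme reaction without inhibitor and -100% = no enzyme wells; top concentration of the series not given in the record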
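Compounds were incubated with enzyme (final 15 nM) for 15 min at room temperature before substrate addition started the reaction. Fluorescence at 525 nm excitation, 598 nm emission was recorded immediately and after 30 minutes.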
ClpP mod: qHTS Assay for Activators of ClpP. purified B. subtilis ClpP, FRET peptide cleavage, 20 min. Potency, µM (series often up to 57.5 µM), for the others: at the highest dose activity change, negative = active. 340,000 compounds, 1.9% hits; active = well fitted falling curve with a large enough effect; inconclusive = small, poorly fitted or top-dose-only effect; inactive = no such curve, though single readings can be large or run the other way; also: potency is read from the fitted curve at half-maximal effect; the source files actives as falling curves though it sought activators and does not explain the sign; nearly all actives have a fitted effect of over 65% in size; many hits overshoot -100%
Target sequence (P80244 whole entry, looked up): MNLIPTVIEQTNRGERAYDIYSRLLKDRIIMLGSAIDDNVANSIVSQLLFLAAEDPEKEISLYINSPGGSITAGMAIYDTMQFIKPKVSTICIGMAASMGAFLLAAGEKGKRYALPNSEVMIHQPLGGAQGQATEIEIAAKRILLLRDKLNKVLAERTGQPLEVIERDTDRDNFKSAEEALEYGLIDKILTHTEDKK
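Purified B. subtilis ClpP, 10 microg/mL final in Tris/HCl pH8 with KCl, BSA, glycerol and Tween-20, cleaved an Abz/nitrotyrosine-quenched decapeptide. Fluorescence (ex 320, em 430) was read at 0 and 20 min at room temperature. Delta was normalized to 5.8 microM ADEP and DMSO/no-enzyme controls.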
An asterisk follows results filed as active; ? = inconclusive; nt = not tested or not shown; & = joins results of further samples; [ ] = dose if it differs, or a comment.

SMILES	Menin-MLL FL inh	TRPML1 ag	TRPV1 PAM	PINK1 modulator	TRPML1 blocker	Sfp PPTase inh	ClpP mod
COc1ccc(CCC(=O)OCc2csc(CC(=O)Nc3ccccc3C)n2)cc1	nt	0.1	8.8	-0.7%	-20.0	-9.2%	-0.3%
O=C(NCc1ccc2c(c1)OCO2)c1ccc(N2CCCC2=O)cc1	-1.2	-0.1	-1.7	-2.9%	-1.5	19.7%	-1.4%
Cc1ccc(C(=O)CCC(=O)N2CCN(c3ccccc3O)CC2)cc1	nt	-0.4	0.5	2.3%	-20.4	nt	nt
CCN(CC)CCNC(=O)c1ccc(NC(=O)c2cccc(S(=O)(=O)N3CCCCCC3)c2)cc1	nt	-0.4	nt	4.0%	-14.5	nt	-6.3%
CN(CC(=O)Nc1ccc(Cl)c(C(F)(F)F)c1)C(=O)C1CC(=O)N(C2CCCC2)C1 (configuration not stated)	nt	0.0	8.6	0.4%	-0.6	nt	-3.6%
O=C1COc2ccc(C(=O)CSc3nnnn3-c3ccccc3)cc2N1	1.4	0.5	-12.9	-1.9%	-4.7	-15.7%	-1.3%
O=C(NC1=NCCS1)c1ccccc1OCc1ccccc1Cl	0.7	3.0	-13.4	-1.6%	-4.2	3.5%	-0.5%
Cn1ccc(C(=O)Nc2ccc3c(c2)OCCO3)n1	0.1	-0.4	-18.1	-0.5%	-1.3	15.8%	0.9%
Cn1c(NCc2cccnc2)nc2cc(-c3cccc(C(=O)NCCO)c3)sc2c1=O	nt	-0.8	nt	0.1%	nt	nt	4.8%
Cc1[nH]n(-c2ccccc2)c(=O)c1N=O	-0.5	2.2	0.7	-0.3%	-9.1	4.3%	nt

Shown with two lines to a compound: two of the compounds above
Results follow in this order: Menin-MLL FL inh	TRPML1 ag	TRPV1 PAM	PINK1 modulator	TRPML1 blocker	Sfp PPTase inh	ClpP mod
> O=C1COc2ccc(C(=O)CSc3nnnn3-c3ccccc3)cc2N1
 : 1.4	0.5	-12.9	-1.9%	-4.7	-15.7%	-1.3%
> O=C(NCc1ccc2c(c1)OCO2)c1ccc(N2CCCC2=O)cc1
 : -1.2	-0.1	-1.7	-2.9%	-1.5	19.7%	-1.4%

Further entries
SMILES	Menin-MLL FL inh	TRPML1 ag	TRPV1 PAM	PINK1 modulator	TRPML1 blocker	Sfp PPTase inh	ClpP mod
Cc1ccc(SC[C@H](C)CN2CC[C@H](NC(=O)OCc3ccccc3)CCC2=O)cc1	-4.5	-0.1&-0.6	1.8	-0.1%	0.1	8.7%	-0.9%&1.6%
COc1ccc(NC(=O)CCSc2nnnn2C)cc1	0.7	0.0	11.2	1.9%	-9.4	4.3%	-0.1%
COc1ccc(CN2CCN(c3ncnc4scc(-c5ccc(F)cc5)c34)CC2)cc1	-12.5	0.5	-0.7	12.2%	13.3	-14.0%	-1.5%
O=C(CC1CC2CCC1C2)N1CCN(S(=O)(=O)c2ccccc2[N+](=O)[O-])CC1 (configuration not stated)	nt	-0.5	-6.8	0.2%	6.6	nt	0.7%
Cc1ccc(OCc2cnc(Cl)s2)c(C)c1	3.9	0.5	-14.5	5.3%	-8.4	-4.4%	nt
N/C(=N\OC(=O)COc1ccc(Br)cc1)c1ccncc1	5.7	0.4	0.0	7.6%	-3.5	4.2%	-1.1%
COc1cc(CCC(O)CC(=O)CCc2ccccc2)ccc1O (configuration not stated)	-4.1	nt	13.8	-0.2%	nt	-0.9%	-3.1%
O=C(COc1ccc(Cl)cc1Cl)Nc1ccc(Cl)cn1	0.5	2.9	2.4	3.5%[38.3 µM]	-7.9	-7.4%	0.0%
COc1cccc(-c2nn(C)c3sc(C(=O)NCc4cc(OC)ccc4OC)cc23)c1	nt	-0.1	nt	3.9%	-13.3	nt	?
COC(=O)c1cccc(NC(=O)c2cnccn2)c1	-3.1	-1.1	-2.5	-0.5%	8.2	4.6%	0.8%
COc1ccccc1CN1C(=O)C(Cc2ccccc2)ON=C1c1ncccc1C (configuration not stated)	nt	-0.5	nt	-0.8%	nt	nt	0.9%
C=CCn1c(SCC(=O)c2ccc(Br)cc2)nnc1C(CC(C)C)NC(=O)c1cccs1 (configuration not stated)	0.0	-0.2	1.9	11.2%[38.3 µM]	-1.3	-0.1%	0.0%
CCc1ccc2c(c1)c1nc(C)sc1n2CC(=O)OC	-0.6	0.3	5.5	-2.0%[38.3 µM]	-1.3	8.7%	0.0%
Cc1nc2ccccc2c(=O)n1/N=C/c1ccccc1	1.6	-0.6	-3.7	-0.3%[38.3 µM]	-7.0	7.0%	-0.8%
O=C(NC1=NCCS1)c1ccc(-c2ccc(Cl)cc2)o1	3.1	-0.4	-18.8	3.5%	20.8	-4.1%	?
COCC(=O)n1nc(-c2ccccc2)nc1NCc1ccccc1	-1.6	0.5	5.5	-0.7%	6.0	10.0%	nt
C#CC1(O)CCC2C3CCc4cc(O)cc(C)c4C3CCC21C (configuration not stated)	nt	0.7	nt	-3.1%	14.7	nt	31.6µM*
O=C(Nc1ccc(F)cc1)NC1(C(=O)NCc2cccs2)CCCCC1	4.0	0.4	-1.8	nt	-5.4	16.0%	0.4%
N=C1C(c2ccccc2)=C(O)CN1c1cccc(S(=O)(=O)Nc2cccc(C(F)(F)F)c2)c1	4.2	-0.4	0.4	0.5%	-8.2	?	nt
CCOC(=O)c1nc(Nc2ccc(C(=O)O)cc2)c2ccccc2n1	-0.6	0.0	0.2	-1.3%	-5.6	8.3%	1.0%
O=C(CN1C(=O)NC2(CCCC2)C1=O)OCCOc1ccccc1Cl	nt	-1.2	4.1	0.5%	-9.0	nt	1.2%
Cc1nn(C)c(C)c1NC(=O)c1ccc(S(=O)(=O)N(C)C)cc1	0.4	1.6	-20.1	0.1%[38.3 µM]	-7.0	27.8%	-1.9%
COc1ccc(C(CNC(=O)c2cc(S(=O)(=O)Nc3cccc(C)c3)ccc2C)N2CCOCC2)cc1 (configuration not stated)	nt	-0.5	nt	0.3%	-6.1	nt	-1.4%
COc1ccc(N2CCN(CC(=O)c3c(C)n(C)c4ccc(OC)cc34)CC2)cc1	1.1	-0.3	0.6	12.1%	7.8	10.2%	nt
Cc1ccc(CNc2ccc(N3C(=O)CC(C)C3=O)cc2[N+](=O)[O-])cc1 (configuration not stated)	4.8	3.0	5.6	2.7%	25.3	?	0.0%
COc1ccc(NC(=O)Cn2cc(S(=O)(=O)Cc3ccccc3)c3ccccc32)c(OC)c1	4.4	-0.5	11.1	1.1%	19.6	9.0%	-2.7%
CCCCN(C(=O)c1ccccc1Br)C(c1ccc(OC)cc1)c1nc2ccccc2[nH]1 (configuration not stated)	nt	0.5	nt	-1.0%	nt	nt	1.5%
C[C@H](CO)N1C[C@H](C)[C@@H](CN(C)C(=O)Nc2ccc(C(F)(F)F)cc2)Oc2c(NC(=O)C3CCCCC3)cccc2C1=O	nt	2.5	nt	-1.0%	7.0	nt	-1.6%
O=c1[nH]c(Nc2ccccc2)cc2ccccc12	0.9	11.3	-4.0	2.2%	-8.0	-3.2%	28.2µM*
COc1ccc(N(CC(=O)Nc2cccc(C(C)=O)c2)S(C)(=O)=O)cc1OC	5.2	-1.3	2.4	-0.7%	-16.4	11.0%	0.6%
CCc1ccc(-c2nc(-c3cc4ccccc4oc3=O)sc2C)cc1	nt	-0.5	nt	0.2%	-8.6	nt	-9.2%
Cc1ccc(NC(=O)COC(=O)c2nn(-c3ccc(Cl)cc3)cc2O)cc1	nt	-0.7	nt	9.4%	7.3	nt	-1.2%
Cc1ccc(CNC(=O)C2CCC(=O)N(CCc3ccc(Cl)cc3)C2)cc1 (configuration not stated)	0.2	-0.2	-5.2	-1.0%	-8.5	-12.5%	-0.3%
CCc1cccc(OCC(=O)Nc2ccc(C(=O)O)cc2NC(=O)COc2cccc(CC)c2)c1	nt	1.7	-2.3	0.1%	19.9	-5.1%	0.5%
c1cncc(-c2cccnc2)c1	1.1	-0.2	3.7	1.2%	-16.5	-20.8%	-4.3%
CCOc1ccc2c(c1)C(=O)C(=O)N2CC1COc2ccccc2O1 (configuration not stated)	-6.9	0.6	-21.2	4.1%	20.3	6.5%	0.5%
CC(C)C(=O)Nc1cccc(C(=O)Nc2cc([N+](=O)[O-])ccc2Cl)c1	7.3	-1.1	4.4	1.2%	-7.9	9.7%	-4.5%
C=CCN1C=C2C(=O)C(C)(OC(=O)CCC(=O)OC)C(=O)C=C2C=C1C1CC1 (configuration not stated)	?	-0.2	7.3	0.5%	13.6	-9.9%&0.5%	1.1%
COc1ccccc1NS(=O)(=O)c1cc(NC(=O)C(C)NC(N)=O)ccc1N1CCCC1 (configuration not stated)	nt	-0.5	4.7	1.6%	-4.8	nt	-15.2%
CCC(=O)Nc1ccc(/C(C)=N/NC(=O)c2c(-c3ccccc3Cl)noc2C)cc1	-0.1	1.2	11.4	-0.4%	10.0	-2.0%	-2.3%
Cc1cccc(N2CCN(c3nc4ccccc4c4nnc(C)n34)CC2)c1C	nt	1.1	nt	0.3%	-2.0	nt	-1.8%
COc1ccccc1N1CCN(C(=O)C2CCN(S(=O)(=O)Cc3ccccc3)CC2)CC1	nt	-0.4	nt	0.2%	46.4	nt	-0.2%
CC(C)C1C(=O)CC(c2ccccc2)NC1c1ccccc1 (configuration not stated)	-3.1	nt	10.6	9.8%	nt	-6.5%	-1.1%
CCO[C@H]1OC(C(=O)N2CCN(C)CC2)=C[C@@H](c2ccc(C(F)(F)F)cc2)[C@@H]1CCCO	-0.5	-0.6	1.9	0.3%	-2.2	3.1%	1.0%
COc1cc(NS(=O)(=O)c2ccc(NC(=O)COc3ccc(C)cc3C)cc2)nc(OC)n1	4.2	0.9	18.3	9.0%[38.3 µM]	6.8	7.7%	-0.1%
c1ccc(-c2csc(-c3cccnc3)n2)cc1	3.1	0.4	-2.4	-0.7%	10.5	8.2%	nt
O=S(=O)(Cc1ccc(Cl)cc1)Nc1ccc(Cl)cn1	-1.4	-0.9	0.1	-0.3%	-2.6	0.0%	nt
CCOc1cc(N2CCOCC2)c(OCC)cc1NC(=O)CN1C(=O)NC(Cc2ccccc2)C1=O (configuration not stated)	2.0	-0.9	-1.5	1.0%	5.8	-13.4%	1.2%
O=C1CCC(C2CCc3cc(O)ccc3C2)C1 (configuration not stated)	nt	-0.3	nt	0.0%	8.2	nt	1.5%
COc1ccccc1-c1cc(C(=O)NC2CCCC2)no1	6.4	0.0	0.9	6.5%	-5.9	-1.4%	nt
Cc1ccccc1OCC(=O)NNC(=O)C1CC(=O)N(c2ccc3c(c2)OCCO3)C1 (configuration not stated)	nt	4.0	5.2	1.7%	22.4	nt	-2.6%
